Mtb MbtI inh = inhibitors of Mycobacterium tuberculosis siderophore enzyme MbtI; P9WFX0; purified MbtI enzyme, fluorescence intensity read-out; inhibition, %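 (about 17 µg/mL by stock and volumes)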; 0.89% of 100,000 active;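 active = above 50% in both replicates, above 80% if mildly self-fluorescent; inactive = the rest, strongly fluorescent compounds included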;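 note: 0% = mean of negative and 100% = mean of positive controls; one replicate is shown; some compounds called inactive have numbers as strong as hits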
Target sequence (P9WFX0 whole entry, looked up): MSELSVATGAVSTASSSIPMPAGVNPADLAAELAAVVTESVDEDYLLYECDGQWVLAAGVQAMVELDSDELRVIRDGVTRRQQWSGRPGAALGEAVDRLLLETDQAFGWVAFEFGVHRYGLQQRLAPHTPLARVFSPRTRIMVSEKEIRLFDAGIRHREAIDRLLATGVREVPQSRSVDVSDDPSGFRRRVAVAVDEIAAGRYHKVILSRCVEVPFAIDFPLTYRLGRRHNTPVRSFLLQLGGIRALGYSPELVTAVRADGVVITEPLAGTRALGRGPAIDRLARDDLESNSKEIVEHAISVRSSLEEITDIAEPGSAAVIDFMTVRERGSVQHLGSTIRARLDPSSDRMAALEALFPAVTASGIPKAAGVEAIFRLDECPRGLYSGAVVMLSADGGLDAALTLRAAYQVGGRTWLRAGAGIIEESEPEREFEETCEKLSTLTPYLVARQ
Mtb MenB inh = Mtb MenB enzyme inhibition; MenB enzyme assay, absorbance read-out; some hits fall short of the stated cut; inhibition, %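 (about 12 µg/mL by stock and volumes)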; 0.43% of 100,000 active;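 active = mean of two replicates above 30%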;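 note: 0% = no compound and 100% = wells with inactive enzyme; the first replicate is given; strong numbers were not always called active; inactives centre near -10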
PV pol inh = inhibitors of poliovirus RNA polymerase binding and polymerization | P03300 | poliovirus polymerase elongation, fluorescence polarization; hits give low values | % elongation, % (compound at 16.7 µg/mL) | 0.66% of 150,000 active; in the data active = % elongation below about 90%; note: some results filed as inactive read as strong as hits
Target sequence (P03300 1749-2209 limits assumed): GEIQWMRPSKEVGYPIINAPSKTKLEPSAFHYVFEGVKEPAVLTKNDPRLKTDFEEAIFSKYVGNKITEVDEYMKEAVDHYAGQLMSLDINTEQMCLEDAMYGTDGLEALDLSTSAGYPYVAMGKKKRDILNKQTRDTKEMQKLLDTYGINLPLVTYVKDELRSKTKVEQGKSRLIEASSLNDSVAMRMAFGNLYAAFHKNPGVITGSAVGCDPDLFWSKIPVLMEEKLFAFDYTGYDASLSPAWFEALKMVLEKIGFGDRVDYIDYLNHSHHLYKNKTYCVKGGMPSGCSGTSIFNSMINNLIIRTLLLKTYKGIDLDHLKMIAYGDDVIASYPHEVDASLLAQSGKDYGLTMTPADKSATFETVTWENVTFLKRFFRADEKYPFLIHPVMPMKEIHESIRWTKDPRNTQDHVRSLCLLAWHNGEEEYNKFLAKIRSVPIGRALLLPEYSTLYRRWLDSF
PV pol inh intensity = also measured in PV pol inh; calls as there; % elongation; measured here: total intensity read-out; formula for this scale not given here;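 total fluorescence in place of polarization; lower means less elongation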
* = called active by the depositor; i = inactive; / = no result given. No enrichment for hits (roughly 1.7% active in at least one column).

SMILES	Mtb MbtI inh	Mtb MenB inh	PV pol inh	PV pol inh intensity
COc1cc(OC)cc(C(=O)NC(C)c2ccccc2)c1 (configuration not stated)	27	-6	101	110
O=S(=O)(Nc1cccnc1)c1ccc2[nH]c3c(c2c1)CCCCC3	-27	-4	100	102
CCc1nnc(NS(=O)(=O)c2ccc(N)cc2)s1	/	-11	98	103
CC(C)N(C(=O)Cn1nnc2c(cnn2-c2ccccc2)c1=O)C(C)C	5	-31	100	103
c1csc(C2=Nn3c(Cn4nnc5ccccc54)nnc3SC2)c1	51	-19	93	86
OC(COc1ccc(-c2ccccc2)cc1)CN1CCOCC1 (configuration not stated)	8	-24	101	106
COc1cccc(C2NC(C(=O)O)C3C(=O)N(c4cccc(C(=O)O)c4)C(=O)C23)c1O (configuration not stated)	-6	-29	102	103
CC(=O)OC[C@H]1O[C@@H](n2cnc3c(=O)[nH]c(N)nc32)[C@H](OC(C)=O)[C@@H]1OC(C)=O	2	-20	102	100
COc1ccccc1-n1c(SC(C)C(N)=O)nc2ccccc2c1=O (configuration not stated)	15	13	102	99
C=CCn1c(SCc2cc(=O)[nH][nH]2)nc2sc(CC)cc2c1=O	10	-177	101	100
CCOc1ccc(Oc2ccc(C(F)(F)F)cc2N)cc1	-1	/	101	108
COc1ccc(Cn2c(O)c(C=Nc3cc(C)on3)c3ccccc3c2=O)cc1	-20	-10	101	99
Cc1ccnc(NCc2ccc(N(C)C)cc2)c1	-4	1	103	105
CC1=CC(c2ccccc2)NC(=S)N1 (configuration not stated)	-17	-46	102	103
COCn1nc(-c2ccc(Cl)cc2Cl)oc1=S	-3	-12	101	101
Cc1cc(/C=C(\C#N)C(=O)N2CCc3ccccc3C2)c(C)n1C	-11	-17	104	102
CCOC(=O)C1=C(Cn2ccnc2)NC(=O)NC1c1ccc(Cl)cc1 (configuration not stated)	2	11	98	96
CCN(CC(=O)N1CCCCC1)S(=O)(=O)c1ccccc1	-15	-16	104	103
Cc1ccc(S(=O)(=O)N(Cc2ccccc2)C(C#N)c2ccc3c(c2)OCO3)cc1 (configuration not stated)	-11	-8	104	110
O=C1CC(C(=O)N2CCCC2)CN1CCc1ccc(F)cc1 (configuration not stated)	-8	-63	103	109
O=C(Oc1nsnc1N1CCOCC1)N1CCCCC1	7	8	101	102
CC1(C(=O)NC2CCCCC2)CCC(=O)N1Cc1cccnc1 (configuration not stated)	-1	4	104	97
O=C1OCCN1P(=O)(c1ccccc1)c1ccccc1	5	10	97	101
O=C1C=C(NCc2ccc(Cl)cc2)CC(c2ccco2)C1 (configuration not stated)	18	-6	103	103
c1coc(-c2nnc(C3CCCCC3)o2)c1	/	-12	109	105
Further entries
SMILES	Mtb MbtI inh	Mtb MenB inh	PV pol inh	PV pol inh intensity
Cc1cc(C)cc(NC(=O)C(OC(=O)C2CCC(=O)N2)c2ccccc2)c1 (configuration not stated)	-4	/	101	95
Cc1ccc(-c2cc(C(F)(F)F)n3nc(C(=O)Nc4ccn(Cc5ccccc5)n4)cc3n2)cc1C	25	-11	99	100
Cc1ccc(N=C2SC3(CC3)C(=O)N2c2ccc(C)cc2)cc1	-1	-16	105	103
COCCSc1nnc(NC(=O)C2CCCO2)s1 (configuration not stated)	19	25	102	101
COc1ccc(NC(=O)COc2ccc(C)c(C)c2)c(OC)c1	-2	-30	99	100
N#C/C(=C/C=C/c1ccc(-c2cc(Cl)ccc2Cl)o1)C(N)=S	71	-21	105	116
COc1cccc(CC2CC(=O)N(c3ccc4c(C)cc(=O)oc4c3)C2=O)c1 (configuration not stated)	-15	-16	101	103
Cc1ccc(CCCC(=O)O)cc1	/	-2	102	105
CCC(CC)c1nnc(NS(=O)(=O)c2ccc(C)cc2)s1	-11	-31	99	100
Nc1cnn(C2OC(CO)C(O)C2O)c(=O)n1 (configuration not stated)	-2	7	99	103
O=C(O)CN1C(=O)Cc2ccccc2C1=O	-4	-37	24*	46*
COc1ccc(CNC2CCCCC2)cc1OC	-9	0	100	101
O=C(c1cccn2c(=O)c3cc(Br)ccc3nc12)N1CCC2(CC1)OCCO2	-30	-30	102	106
CNC(=O)c1ccc(OCc2ccccc2)c(OC)c1	-6	-15	102	104
O=C(Nc1ncnc2oc(-c3ccccc3)c(-c3ccccc3)c12)c1ccccc1	-44	-79	103	106
COc1ccc2c(c1)nc1n2CN(CC2CCCO2)CN1Cc1ccccc1 (configuration not stated)	-16	-13	102	106
O=C(CC1SC(=NCc2ccccc2)NC1=O)Nc1ccccc1F (configuration not stated)	-5	-18	102	105
CCOC(=O)N1CCN(C(=O)COc2ccc(S(=O)(=O)NCC(C)C)cc2C)CC1	-3	8	101	102
COc1ccc(SCc2cc3c(F)c(F)c(F)c(F)c3o2)cc1	-6	-15	109	118
O=C(/C=C/c1ccc(Br)cc1)NCCCn1ccnc1	5	-21	101	105
O=C1NC2=C(C(=O)OC2)C(c2ccccc2)N1 (configuration not stated)	5	-9	103	106
NS(=O)(=O)c1ccc(Oc2ccccc2)cc1	4	2	99	87
Cc1noc(C)c1COc1cccc(C(=O)NC(C)C2CC3CCC2C3)c1 (configuration not stated)	-2	-10	105	106
COc1ccc(-n2c(-c3ccco3)nc3c(cnn3-c3ccc(C)c(C)c3)c2=O)cc1Cl	-5	2	99	102
CNC(=O)C(C)SCc1ccccc1 (configuration not stated)	-12	-11	102	102
Next section:
SMILES	Mtb MbtI inh	Mtb MenB inh	PV pol inh	PV pol inh intensity
COc1ccc(-c2noc(CC(=O)N3CC(C)CC(C)C3)n2)cc1 (configuration not stated)	-14	1	103	105
CCOC(=O)Cn1cc(C)c(=O)[nH]c1=O	-6	-10	101	101
NS(=O)(=O)c1ccc(CCN=Cc2ccccc2O)cc1	-9	-1	108	103
O=S(=O)(c1ccccc1)N(CCO)Cc1ccccc1	/	-23	108	110
Cc1ccc(Cn2c(SCc3cccc(C(F)(F)F)c3)nc3ccncc32)cc1	7	-17	106	99
CCC(=O)c1cn(S(=O)(=O)c2ccc(C)cc2)c2ccccc12	-5	-36	103	106
O=C(O)CCC(=O)Nc1sc2c(c1C(=O)O)CCCC2	19	-6	99	99
OC(CNCc1ccco1)COc1ccccc1 (configuration not stated)	-4	/	103	97
CCN(CC)c1ncnc2sc3c(c12)CCCC3	-1	-15	109	97
CC1CCC(NC(=O)c2cc3oc4ccccc4c3n2C)CC1 (configuration not stated)	117	4	104	100
N#CC1=C(N)NC(SCC(=O)Nc2cccc3ccccc23)=C(C#N)C12CCCCC2	-2	-26	103	102
c1ccc(-c2cc3ccsc3o2)cc1	15	-4	102	106
CCOC(=O)C1=C(c2ccccc2)Nc2ncnn2C1c1ccc(OCc2ccccc2)cc1 (configuration not stated)	2	-27	103	98
O=c1ccc(-c2ccc(S(=O)(=O)NCCc3cccs3)o2)n[nH]1	-20	2	99	103
COc1ccc(O)c(C(=O)c2cnn(C(=S)Nc3ccccc3)c2N)c1	2	-43	102	109
COC(=O)c1cccc(OCC(O)CN(C)Cc2ccc(OC(F)F)c(OC)c2)c1 (configuration not stated)	-15	-23	105	107
CC1=C2C(=NCCN1)C(=O)N(c1ccccc1)C2c1cccs1 (configuration not stated)	3	5	103	108
C/C(CC12CC3CC(CC(C3)C1)C2)=N\NC(N)=O	-7	-8	97	96
CCN1C(=O)/C(=C/c2ccc(-c3ccc(Br)cc3)o2)N(CC)C1=S	13	-16	103	114
COc1ccc(-c2nc3ccccc3n2CCOc2ccccc2)cc1	i	-17	103	99
O=C(C(Sc1ccccc1)c1ccccc1)N1CCOCC1 (configuration not stated)	-3	9	101	102
CC1(C)CC(=O)c2cnc(N)nc2C1	2	-18	103	103
COc1ccccc1CN(C)C(=O)CN1CCN(C(=O)c2cccs2)CC1	-4	-10	104	109
COc1ccc(C2CC(=O)N(CC(=O)N3CCOCC3)c3ccccc3S2)cc1 (configuration not stated)	-2	-36	106	107
COc1ccc2oc(=O)c(C(N)=O)cc2c1	24	-20	101	107
Further entries follow.
SMILES	Mtb MbtI inh	Mtb MenB inh	PV pol inh	PV pol inh intensity
COc1cc2c(cc1OC)CN(Cn1cnc3ccccc3c1=O)CC2	-2	-10	103	101
CCOc1cc(C(=O)Nc2cc(Cl)ccc2OC)cc(OCC)c1OCC	-6	-18	103	107
NC(=O)CCNC12CC3CC(CC(C3)C1)C2	/	-11	104	97
COC(=O)/C=C1/C(=O)N/C(=N\c2nc(C)cc(C)n2)N1c1cccc(C)c1	-5	-15	104	109
COC(=O)c1cc(S(=O)(=O)N2CCN(c3cccc(C(F)(F)F)c3)CC2)cn1C	-7	-13	106	104
Cc1cc(S(=O)(=O)N2CCOCC2)ccc1OCC(=O)Nc1ccc2c(c1)OCO2	-2	-28	101	104
COC(=O)NC1CCS(=O)(=O)C1 (configuration not stated)	-10	/	104	108
O=C(CCN1C(=O)/C(=C\c2ccco2)SC1=S)NN1CCOCC1	12	-38	98	103
Cc1cc(Cl)ccc1OCCN(C)CCO	-12	0	101	105
O=C(COc1ccc(-c2nnco2)cc1)N(Cc1cccs1)c1ccc2c(c1)OCCO2	-3	-29	96	103
CC1CCN(CC(=O)NC2CC2)CC1	-12	6	102	102
CCOC(=O)Cc1ccc(-n2c(C)ccc2C)cc1	6	-46	108	118
CCc1cccc(CC)c1NC(=O)COc1ccccc1C(=O)N1CCOCC1	/	-14	115	112
CCc1ccc(NC2=NC(C(=O)Nc3ccccc3)CC(=O)N2)cc1 (configuration not stated)	0	-30	101	96
COCCCn1c(SCc2ccc(C(=O)O)cc2)n[nH]c1=O	-6	-33	103	99
CC(C)[C@H](NC(N)=O)C(=O)Nc1ccc(Cl)c(Cl)c1	-1	-13	113	121
CC(=O)Nc1nnc(C)s1	-12	/	103	109
Cn1cccc1C(=O)OCC(=O)N(Cc1ccccc1)C1CCS(=O)(=O)C1 (configuration not stated)	-8	-21	104	99
Cc1ccc(C2C3C(=O)N(C)C(=O)C3ON2c2ccccc2)cc1 (configuration not stated)	-8	-22	101	97
O=Nc1ccc(NNC(=O)c2ccccc2O)cc1	46	-414	101	99
Cn1c(=O)c2cc(S(=O)(=O)N3CCOCC3)ccc2n(C)c1=O	-21	4	99	101
COc1ccc(S(N)(=O)=O)cc1C(=O)NCC(c1cccs1)N(C)C (configuration not stated)	13	17	107	101
O=C(CSc1ccc(-c2ccco2)nn1)Nc1ccccc1	35	-18	106	104
CC1CCCCN1S(=O)(=O)c1ccccc1C(=O)O (configuration not stated)	9	-14	95	100
CCC(CC)NS(=O)(=O)c1cccc(C(=O)NCCOc2ccccc2)c1	/	-29	106	111

16 structures from above, sorted by SMILES length, smallest number first.
SMILES	Mtb MbtI inh	Mtb MenB inh	PV pol inh	PV pol inh intensity
CC(=O)Nc1nnc(C)s1	-12	/	103	109
Cc1cc(Cl)ccc1OCCN(C)CCO	-12	0	101	105
O=Nc1ccc(NNC(=O)c2ccccc2O)cc1	46	-414	101	99
CCOC(=O)Cc1ccc(-n2c(C)ccc2C)cc1	6	-46	108	118
O=C(CSc1ccc(-c2ccco2)nn1)Nc1ccccc1	35	-18	106	104
COCCCn1c(SCc2ccc(C(=O)O)cc2)n[nH]c1=O	-6	-33	103	99
COc1cc2c(cc1OC)CN(Cn1cnc3ccccc3c1=O)CC2	-2	-10	103	101
CC(C)[C@H](NC(N)=O)C(=O)Nc1ccc(Cl)c(Cl)c1	-1	-13	113	121
CCc1ccc(NC2=NC(C(=O)Nc3ccccc3)CC(=O)N2)cc1 (configuration not stated)	0	-30	101	96
Cn1c(=O)c2cc(S(=O)(=O)N3CCOCC3)ccc2n(C)c1=O	-21	4	99	101
COc1ccc(S(N)(=O)=O)cc1C(=O)NCC(c1cccs1)N(C)C (configuration not stated)	13	17	107	101
Cn1cccc1C(=O)OCC(=O)N(Cc1ccccc1)C1CCS(=O)(=O)C1 (configuration not stated)	-8	-21	104	99
Cc1cc(S(=O)(=O)N2CCOCC2)ccc1OCC(=O)Nc1ccc2c(c1)OCO2	-2	-28	101	104
O=C(COc1ccc(-c2nnco2)cc1)N(Cc1cccs1)c1ccc2c(c1)OCCO2	-3	-29	96	103
COC(=O)/C=C1/C(=O)N/C(=N\c2nc(C)cc(C)n2)N1c1cccc(C)c1	-5	-15	104	109
COC(=O)c1cc(S(=O)(=O)N2CCN(c3cccc(C(F)(F)F)c3)CC2)cn1C	-7	-13	106	104

Later entries
SMILES	Mtb MbtI inh	Mtb MenB inh	PV pol inh	PV pol inh intensity
Cc1c(N=CN(C)C)c(=O)n(-c2ccccc2)n1C	12	-4	101	108
CC1(C)CNC(=O)c2sc(N3CCCCC3)nc2C1	/	-17	107	92
CCC1CSc2nc3ccsc3c(=O)n21 (configuration not stated)	2	-8	102	108
O=C(O)C1C2C=CC3(CN(CCc4ccccc4)C(=O)C13)O2 (configuration not stated)	2	-6	101	103
Cc1ccc(C(=O)N(C)Cc2ccccc2)c(Cl)c1	-7	-25	99	101
CC1Cc2ccccc2N1C(=O)CSc1cccc[n+]1[O-] (configuration not stated)	-11	-29	103	108
O=S(=O)(c1ccccc1)c1ccc(O)cc1	-7	/	98	94
CCOC(=O)c1cc(-c2ccc(F)cc2)n(CC(=O)NC2CCCC(C)C2C)c1C (configuration not stated)	-11	1	104	108
O=C(CC1(O)C(=O)Nc2ccccc21)C1CC2C=CC1C2 (configuration not stated)	/	2	104	107
CC(C)NCC(=O)Nc1ccc(S(N)(=O)=O)cc1	-11	-5	98	109
CC1CCCC(C)N1C(=O)CN(C)S(=O)(=O)c1ccc(Cl)cc1 (configuration not stated)	19	1	98	103
O=C(COC(=O)c1cccc2ccccc12)NC1CCS(=O)(=O)C1 (configuration not stated)	-1	-9	103	104
O=C(NCc1ccco1)C(c1ccccc1)N(C(=O)Cc1cccs1)c1cccnc1 (configuration not stated)	-10	-50	101	101

Screening data deposited in PubChem BioAssay by ICCB-Longwood Screening Facility, Harvard Medical School.
